ClpP mod: qHTS Assay for Activators of ClpP. actives 1.9% (n = 340,000). ATP-dependent Clp protease proteolytic subunit (Bacillus subtilis (strain 168)), P80244. Potency, µM (doses to about 57.5 µM), for inactives: at the highest dose activity change, negative = active. purified B. subtilis ClpP, FRET peptide cleavage, 20 min; active = well fitted falling curve with a large enough effect; inconclusive = small, poorly fitted or top-dose-only effect; inactive = no such curve, though single readings can be large or run the other way; note: potency is the fitted concentration of half-maximal effect; the source files actives as falling curves though it sought activators and does not explain the sign; nearly all actives have a fitted effect of over 65% in size; many hits overshoot -100%
Target sequence (P80244 whole entry, looked up): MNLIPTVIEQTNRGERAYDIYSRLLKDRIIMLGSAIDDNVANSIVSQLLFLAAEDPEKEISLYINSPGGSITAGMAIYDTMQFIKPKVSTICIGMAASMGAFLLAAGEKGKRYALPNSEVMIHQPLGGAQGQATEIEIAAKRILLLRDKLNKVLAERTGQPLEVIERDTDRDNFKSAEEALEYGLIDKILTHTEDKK
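Buffer: 100 mM Tris/HCl pH8, 100 mM KCl, 0.05% low protease BSA, 2.5% glycerol, 0.01% Tween-20. ClpP 10 microg/mL final; 20 min RT; delta FRET normalized to ADEP and DMSO controls.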
Sfp PPTase inh: blocks B. subtilis Sfp PPTase activity; AID 1490; actives 3.5% (n = 310,000); Potency, µM, inactives show max response, negative = inhibition, usual class: inhibitors; Biochemical Sfp PPTase activity, qHTS; Q9F4F7; active = well fitted inhibition curve with a large enough effect; inconclusive = small, poorly fitted or top-dose-only effect, or another doubt; inactive = no such curve, though single readings can be large or run the other way;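 note: the enzyme is Sfp with the accession as filed and its product quenches rhodamine fluorescence; potency is the fitted concentration of half-maximal effect; 0% = enzyme reaction without inhibitor and -100% = no enzyme wells; top concentration of the series not given in the record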
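Reaction rates are the 30-min fluorescence difference (ex 525, em 598 nm) in wells containing 15 nM Sfp, 5 uM rhodamine-CoA and 12.5 uM BHQ-2-YbbR at pH 7.6 with 10 mM MgCl2.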
TRPML1 blocker: inhibitors of human TRPML1 channel | actives 0.02% (n = 390,000) | TRPML1-inducible cells, Ca2+ dye fluorescence, FDSS; stronger effect = lower value; inhibition of EC80 agonist-evoked calcium signal | Q9GZU1 | activity change, negative = inhibition, % (concentration not given with the values); in the data active means activity change below about -50%; inconclusive means about -30% to -50%; inactive means above about -30%;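 note: stimulus is agonist 54-4 at its EC80 concentration; % is set by controls: 0 for no effect and ±100 for the full control effect; compound concentration not given in the record; the text of the record puts the active cut at -80%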
Target sequence (Q9GZU1 whole entry, looked up): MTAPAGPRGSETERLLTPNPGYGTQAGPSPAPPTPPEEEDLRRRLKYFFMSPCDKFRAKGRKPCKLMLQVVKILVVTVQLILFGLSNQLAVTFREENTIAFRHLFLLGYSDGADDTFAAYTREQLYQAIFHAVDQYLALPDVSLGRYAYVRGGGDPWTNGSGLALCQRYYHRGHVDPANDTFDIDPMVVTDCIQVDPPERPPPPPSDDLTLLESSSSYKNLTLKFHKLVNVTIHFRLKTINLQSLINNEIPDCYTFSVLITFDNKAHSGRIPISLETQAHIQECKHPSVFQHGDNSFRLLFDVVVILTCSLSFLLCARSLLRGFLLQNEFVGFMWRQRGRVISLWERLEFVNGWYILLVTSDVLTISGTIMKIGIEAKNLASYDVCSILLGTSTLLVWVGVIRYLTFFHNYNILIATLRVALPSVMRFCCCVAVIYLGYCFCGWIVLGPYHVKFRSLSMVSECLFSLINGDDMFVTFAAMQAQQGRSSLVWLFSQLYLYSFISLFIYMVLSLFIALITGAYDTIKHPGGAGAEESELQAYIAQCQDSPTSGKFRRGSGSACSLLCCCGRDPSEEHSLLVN
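Tet-induced TRPML1-DL cells loaded with Ca8 no-wash calcium dye were read kinetically on FDSS. Compound addition was followed by EC80 agonist 54-4 (4 uM final); inhibition was read over 110 s.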
Menin MLL FP FL: displaces fluorescein MLL peptide from human menin | Fluorescence polarization, fluorescein-MLL peptide displacement from menin | FP activity change, % at 61.4 µM | 290,000 tested, under 10 active; inconclusive = falling polarisation curve, or a change in total fluorescence; inactive = total fluorescence flat and polarisation flat or rising; no compound was filed as active; the % refers to the polarisation; negative = inhibition;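 note: % of control where 0% means no effect; inhibitors lower the polarisation; unlabelled MLL peptide was the positive control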
TRPV1 potentiator: potentiators of human vanilloid receptor 1 (TRPV1) | TRPV1-expressing cells, Fluo-8 calcium influx, capsaicin EC20 potentiation; host cell line not named in the record; control for the full effect not named in the record | potentiation, % at 8.33 µM | actives 0.02% (n = 320,000) | AID 540277; active means potentiation above 80%; inconclusive means 30% to 80%; inactive means below 30%; note: 0% is about no effect
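TRPV1-expressing cells were cultured overnight at 35.5C and loaded with Fluo-8 calcium dye for 40 to 90 min at room temperature. After a 10 s baseline, compound was added and calcium influx was read kinetically for 3 min (ex 480/em 520 nm).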
TRPML1 agonist: agonists of human TRPML1 channel | Q9GZU1 | TRPML1-expressing cells, Ca2+ dye fluorescence, FDSS; host cell line not named in the record; reference of the full effect not given here | activation, % (concentration not given with the values) | actives 0.12% (n = 410,000); in the data active = activation above about 50%; inconclusive = about 30% to 50%; inactive = below about 30%; note: 0% is about no effect; the text of the record puts the active cut at 80%
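Tetracycline-induced TRPML1-DL cells are seeded and incubated overnight before loading with a no-wash Ca2+ dye and quencher. Agonist activity is taken from the 110 s fluorescence read following compound pin-transfer on an FDSS, before EC80 54-4 challenge.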
PINK1 expr mod: PINK1 expression modulation; Potency, µM (top dose mostly 76.6 µM), for the others: at the top dose activation (PINK1 increase), actives largely listed as activators; PINK1 immunofluorescence, high-content cytometry, 24 h; AID 624263; actives 0.2% (n = 410,000); active = well fitted activation curve with a large enough effect; inconclusive = small, poorly fitted or top-dose-only effect; inactive = flat fitted curve, though single readings scatter; cell line not stated here;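 note: potency is the fitted concentration of half-maximal effect; % of control where 0% means no effect; nearly all actives have a fitted effect of over 65% in size; a mitochondrial uncoupler was the plate control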
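Stable cell line, 250 cells/well, 12 h attachment; compounds pinned at 5 concentrations, 24 h; CCCP control. Fixed with nuclear dye, primary antibodies 12 h at 10 degrees C, secondary plus cell stain; laser-scanning cytometer read.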
* hit, by the source's call; ? = inconclusive; / = no result given; & = joins results of further samples; [ ] = remark or other dose.

Values run as follows: ClpP mod | Sfp PPTase inh | TRPML1 blocker | Menin MLL FP FL | TRPV1 potentiator | TRPML1 agonist | PINK1 expr mod
#1 O=C(COc1ccc([N+](=O)[O-])cc1)N1CCC(c2nc3ccccc3s2)CC1
 : 3.4% | / | -3 | / | / | 2.0 | 1.1%
#2 CC(=O)c1cnc2c(-c3ccccc3)c(C(F)(F)F)nn2c1C
 : -1.3% | ? | 3 | 6.4 | -5 | -0.5 | -1.7%
#3 CCN(CC)S(=O)(=O)c1ccc2c(c1)N(CC(=O)NCCCN1CCN(c3ccccc3F)CC1)C(=O)CO2
 : 0.6% | / | -1 | / | / | -0.5 | 0.2%
#4 COc1ccc(-c2cc(C(F)(F)F)n3nc(-c4ccccc4)cc3n2)cc1OC
 : -23% | / | 11 | / | / | -0.8 | 3.7%
#5 COC(=O)c1ccc(NC(=O)CSc2n[nH]c(CC(C)C)n2)cc1
 : -0.3% | / | 23 | / | / | 1.3 | 0.5%
#6 COC(=O)C1=CN(Cc2ccc(OC)c(OC)c2)C=C(C(=O)OC)C1c1ccc(O)cc1
 : 4.0% | 2% | 11 | 0.6 | -16 | 0.8 | 0.0%
#7 COC(=O)[C@H](C)NC(=O)Nc1ccc(OC)c(OC)c1
 : -0.3% | 7% | -6 | -0.1 | -10 | 0.7 | 1.7%
#8 O=C1/C(=C/c2cccs2)SC(=S)N1N1CCOCC1
 : / | 2% | 1 | -3.1 | -6 | 1.5 | -0.6%
#9 O=C(COc1ccccc1F)NNC(=O)c1ccc2c(=O)n3c(nc2c1)CCC3
 : -5.1% | / | 14 | / | 8 | -0.1 | 1.9%
#10 CCOC(=O)N1CCN(S(=O)(=O)c2ccc(C(=O)Nc3nc4ccccc4s3)cc2)CC1
 : 116% | -3% | -5 | 3.1 | 17 | -0.6 | 12%
#11 CCCOc1ccc(OC(=O)c2cn(-c3ccc(OC)cc3)c(=O)c3ccccc23)cc1
 : -18% | / | -8 | / | / | 2.8 | 1.6%
#12 C=CCN(C(=O)Cc1cccs1)c1nc(-c2ccc(S(C)(=O)=O)cc2)cs1
 : / | -4% | 11 | 20 | 6 | -0.8 | 0.5%
#13 Fc1cccc(CN2CCCCCCC2)c1
 : -0.1% | -17% | 5 | 7.5 | -12 | 2.7 | 9.1%[38.3 µM]
#14 COc1ccc(C)cc1N1CC(C(=O)Nc2cccc(C(=O)NC3CC3)c2)CC1=O (configuration not stated)
 : 2.5% | / | 6 | / | / | -0.3 | 0.2%
#15 CC(C)C(=O)Nc1ccc(NC(=O)c2ccc([N+](=O)[O-])cc2Cl)cc1
 : -0.4% | 3% | -7 | 4.5 | -40 | 0.3 | 11%
#16 C/C(=N/NS(=O)(=O)c1cc(C)ccc1C)c1c[nH]c2ccccc12
 : 1.8% | 5% | -13 | / | -1 | 0.4 | 14%
#17 Cc1cccc(C)c1NC(=S)N(CCCN1CCOCC1)Cc1cccnc1
 : / | 15% | 1 | -2.0 | 6 | -0.6 | -0.8%
#18 COc1ccc(Cl)cc1NC(=O)C(=O)NCc1ccc(Cl)cc1
 : 13% | / | -5 | / | / | 1.1 | 6.3%
#19 CN(C(=O)Cn1nc(C(=O)O)c2ccccc2c1=O)c1ccccc1
 : / | 21% | -2 | 2.3 | -8 | -0.1 | 0.1%
#20 Cn1c(=O)cnc2cnc(OCc3ccccc3)nc21
 : / | 5% | / | -4.3 | / | / | 0.4%
#21 Cn1nccc1NC(=O)CC(CC(=O)O)c1ccccc1 (configuration not stated)
 : 4.4% | 12% | 35 | 3.5 | 1 | 0.6 | 0.5%
#22 Cc1onc(-c2ccccc2)c1C(=O)N1CCCC(C(F)(F)F)C1 (configuration not stated)
 : 0.9% | 20% | 22 | / | -10 | 0.9 | 3.9%
#23 COc1ccc(CCn2c(N)cc(=O)[nH]c2=S)cc1OC
 : 1.8% | 0% | -3 | -0.3 | 3 | -0.4 | -0.1%
#24 COc1ccc(CCNC(=O)c2coc(=O)c(Br)c2)cc1
 : 2.7% | 17% | / | -2.1 | -1 | / | 3.3%
#25 CC(Sc1nc2ccccc2c(=O)n1CC1CCCO1)C(=O)N(C)c1ccccc1 (configuration not stated)
 : -1.0% | / | 10 | / | -18 | 1.7 | 3.6%
#26 O=C(Cc1c(Cl)cccc1Cl)OCC(=O)N1CCc2ccccc2C1
 : -1.5% | -1% | -13 | 1.6 | -10 | 0.4 | 0.1%
#27 CC(C)C(=O)Nc1nc2c(c(=O)[nH]1)CCCC2
 : / | 21% | 6 | -0.3 | 18 | 0.2 | -0.5%
#28 Cc1cccc(NC(=O)CSc2nc3ccc(NC(=O)c4cccs4)cc3s2)c1
 : 3.6% | / | -13 | / | / | -0.6 | 3.0%
#29 CC(=O)NC1=NN(C(C)=O)C(C)(CS(=O)(=O)c2ccc(C)c(C)c2)S1 (configuration not stated)
 : -0.2% | 3% | 2 | 1.1 | -5 | 0.4 | /
#30 CC(C)n1cc(CN2CCCC(C(=O)Nc3ccccc3Oc3cccnc3)C2)cn1 (configuration not stated)
 : / | -7% | -14 | -4.7 | 6 | 0.0 | -1.1%

(cont.)
Values run as follows: ClpP mod | Sfp PPTase inh | TRPML1 blocker | Menin MLL FP FL | TRPV1 potentiator | TRPML1 agonist | PINK1 expr mod
#31 Cc1c(Cl)cccc1NC(=O)C1=COCCO1
 : -0.8% | / | -12 | / | 6 | -1.1 | 1.0%
#32 Cc1cccc(-c2cc(-c3ccccc3)nc(SCC(=O)Nc3ccccc3)c2C#N)c1
 : -2.0% | / | -16 | / | / | 0.2 | 1.6%
#33 COc1ccccc1-c1cnc(C(O)c2ccc(Cl)cc2)[nH]1 (configuration not stated)
 : -2.0% | / | / | / | / | -0.8 | 1.1%
#34 CC(C)NC(=O)C1(S(=O)(=O)c2ccccc2)CC=CC1
 : 1.6% | 11% | -2 | 0.0 | -12 | -0.4 | 0.5%
#35 CC(Sc1nnc(C2CC2)n1C1CC1)C(=O)Nc1ccc(C(N)=O)cc1 (configuration not stated)
 : 0.1% | / | 41 | / | -3 | -0.6 | 3.0%
#36 O=C(COC(=O)c1cc(Cl)ccc1O)c1ccc2c(c1)OCO2
 : 13% | / | 21 | / | -6 | 1.3 | 8.5%
#37 COCC(=O)N1CCCC(CNS(=O)(=O)c2ccc(OC)cc2)C1 (configuration not stated)
 : 0.5% | 10% | 6 | 0.4 | -6 | -0.3 | 0.9%
#38 COc1ccc(S(=O)(=O)NCc2nc3nc(C)cc(C)n3n2)cc1
 : -2.6%&0.1% | / | 7&-16 | / | / | -0.3&0.2 | -0.4%&-1.0%
#39 Cc1nc2c(C(=O)N3CCN(c4ccccn4)CC3)cnn2c(C)c1Cc1cccc(Cl)c1
 : -17% | -14% | 13 | 2.4 | -8 | -0.1 | 29%[38.3 µM]
#40 O=c1[nH]c(O)c(/C=C2\C=Nc3ccc(Br)cc32)[nH]1
 : 0.3% | -9% | 8 | 2.7 | 2 | 0.6 | -0.9%
#41 Cc1occc1-c1n[nH]c(=S)n1C
 : / | 5% | -9 | 2.2 | 0 | 0.1 | -0.2%
#42 CCOC(=O)C1=CCN(S(=O)(=O)c2ccc(F)cc2)C1c1ccc(Br)cc1 (configuration not stated)
 : 1.1% | / | 10 | / | / | 1.0 | 0.6%
#43 O=S(=O)(Nc1ccc(Cl)cn1)c1ccccc1
 : / | 14% | -1 | -1.2 | 5 | 0.3 | -1.4%
#44 Cc1ccc(C(=O)NC(Cc2ccc(C(C)(C)C)cc2)C(=O)O)cc1 (configuration not stated)
 : -2.4% | / | 10 | / | / | -0.2 | -0.8%
#45 COc1ccc(OCCSc2nc(C)c(Cc3ccccc3)c(=O)[nH]2)cc1
 : 1.5%&2.7% | 23% | -11&17 | -1.8 | 8 | 0.3&-0.2 | 13%&-0.9%
#46 COC(=O)c1ccccc1NC(=O)NCc1ccncc1
 : ? | 1% | -12 | 0.2 | -5 | 1.0 | -1.3%
#47 COc1ccc(CN(Cc2cccnc2)S(=O)(=O)c2ccc(-n3cnnn3)c(OC)c2)cc1
 : / | 9% | 27 | -3.9 | -10 | -0.3 | -0.8%
#48 CC#CCOC(=O)c1c(C)nc2sc3c(c2c1N)CCC(O)C3 (configuration not stated)
 : -9.3% | / | -11 | 4.2 | -6 | -0.1 | 6.8%
#49 CC(=O)Nc1ccc(C(=O)OCc2ccc(Br)cc2)cc1
 : 6.6% | -40% | -15 | -0.8 | -13 | 0.4 | 1.9%
#50 COC(=O)[C@@]1(C)[C@H]2C(=O)N(Cc3ccccc3)C(=O)[C@H]2[C@H]2CN(C)C(=NC3CCCCC3)N21
 : -1.9% | / | -11 | / | / | 0.6 | -1.2%
#51 CC(C)n1nc(C(=O)Nc2cccc(S(=O)(=O)N3CCOCC3)c2)c2ccccc2c1=O
 : 0.3% | / | -4 | / | -17 | 1.1 | -0.5%
#52 Cc1sc(NC(=O)CSc2nnc(C)c(=O)[nH]2)c(C#N)c1C
 : -1.3% | 0% | 18 | 6.9 | 2 | -0.1 | -1.5%[38.3 µM]
#53 O=C(OCC(=O)N1CCc2ccccc2C1)c1ccc(O)cc1
 : -0.2% | / | -2 | / | / | -0.8 | 0.4%
#54 Nc1nc2[nH]c(=S)[nH]c2c(=O)[nH]1
 : -8.9% | / | / | / | / | -0.8 | 0.2%
#55 CCN(CC)S(=O)(=O)c1ccc(C(=O)NCc2ccc3c(c2)cc(C)n3C)cc1
 : -1.6% | 20% | 27 | -25 | 28 | 0.7 | 1.2%
#56 COc1cc(C(=O)NCC(=O)OCC(=O)c2ccc[nH]2)cc(OC)c1OC
 : 0.7% | 16% | 5 | -0.9 | 13 | -0.9 | 0.4%
#57 O=C(CSc1nnc(-c2cccs2)o1)OCc1ccccc1
 : 16% | -3% | -9 | 0.5 | -14 | 0.1 | 0.3%
#58 OCCN1CCN(c2nc(-c3ccccc3)c3cc(Br)ccc3n2)CC1
 : / | ? | 33 | -11 | -18 | 0.7 | 0.1%
#59 CC(C)c1ccc(CN(C(=O)/C=C/c2ccco2)C2CCS(=O)(=O)C2)cc1 (configuration not stated)
 : -1.5% | ? | 5 | 11 | / | 1.1 | -2.2%
#60 CCc1ccc(S(=O)(=O)NCCc2csc(-c3cccnc3)n2)s1
 : -11% | 5% | -9 | 8.9 | 23 | 0.2 | 0.9%
